Source: PubChem
VDR inh – blocks the human vitamin D receptor; P11473; VDR-SRC2-3 peptide fluorescence polarization, 2 h; Potency, µM, without a hit: max response, negative = inhibition, usual class: inhibitors; 400,000 tested, 0.93% active; AID 504847; active = well fitted inhibition curve with a large enough effect; inconclusive = small, poorly fitted or top-dose-only effect, or another doubt; inactive = no such curve, though single readings can be large or run the other way; note: series mostly up to about 120 µM
Target sequence (P11473 whole entry, looked up): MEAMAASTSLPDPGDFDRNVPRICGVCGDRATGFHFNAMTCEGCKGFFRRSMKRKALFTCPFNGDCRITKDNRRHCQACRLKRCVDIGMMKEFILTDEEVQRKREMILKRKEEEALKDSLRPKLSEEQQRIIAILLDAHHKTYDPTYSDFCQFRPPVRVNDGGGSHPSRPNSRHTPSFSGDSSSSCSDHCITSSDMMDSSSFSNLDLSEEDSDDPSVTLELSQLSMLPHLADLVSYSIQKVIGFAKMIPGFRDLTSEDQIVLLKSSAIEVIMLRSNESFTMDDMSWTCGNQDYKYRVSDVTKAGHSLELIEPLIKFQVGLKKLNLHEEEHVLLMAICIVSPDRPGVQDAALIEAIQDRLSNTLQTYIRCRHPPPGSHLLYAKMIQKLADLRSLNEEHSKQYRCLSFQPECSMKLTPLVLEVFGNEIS
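Fluorescence polarization assay measuring small-molecule disruption of VDR binding to the coregulator peptide SRC2-3. Compounds were pin-transferred (23 nl) into the reagent mix and incubated 2 h at room temperature before reading.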
Active calls of the source: *; ? = inconclusive; & = joins results of further samples. % is set by controls: 0 for no effect and ±100 for the full control effect; potency is the fitted concentration of half-maximal effect.

nr | VDR inh | structure
1 | -1% | COc1ccccc1OCCSc1nnnn1-c1ccc(C)cc1
2 | 4% | C=CCN(c1ccccc1Cl)S(=O)(=O)c1cccc(C(=O)NCCc2ccc(OC)cc2)c1
3 | 7% | CC1CCN(c2nc3c(-c4cccc(Br)c4)nnn3c3ccccc23)CC1
4 | -17% | CCCN(C(=O)c1cn(-c2ccccc2)nc1-c1ccc(OC)cc1)C1CCS(=O)(=O)C1 (stereo not given)
5 | -9% | Cc1ccc(C)c(Nc2nc3ccccc3n3cnnc23)c1
6 | -7% | CC1CCN(C(=O)c2[nH]cnc2C(=O)N(C)Cc2ccccc2)CC1
7 | 5% | CCCCn1c(O)c(N=Nc2ccccc2O)c2ccccc21
8 | -2% | CCn1c(SCC(N)=O)nc2sc3c(c2c1=O)CCCC3
9 | 7% | CC(C)C1C(C#N)=C(N)Oc2n[nH]c(-c3ccccc3)c21 (stereo not given)
10 | -3% | O=C(c1cccc(S(=O)(=O)Nc2ccc(F)cc2)c1)N1CCOCC1
11 | -15% | Cc1csc2c(=O)n3c(nc12)CCCCC3
12 | 16% | COc1cc(OC)cc(-c2c(C#Cc3ccsc3)c3cc(-c4ccc5c(c4)OCO5)ccc3n2C)c1
13 | 2% | CCOc1ccc(S(=O)(=O)Nc2ccc(C(=O)NCC(c3ccc(OC)cc3)N3CCOCC3)cc2)cc1 (stereo not given)
14 | -14% | COc1ccc(Cl)cc1NC(=O)Nc1ccc(C(=O)N2CCOCC2)cc1
15 | -3% | Cc1c(NC(=O)C2CCN(S(=O)(=O)c3ccc(Cl)cc3)CC2)c(=O)n(-c2ccccc2)n1C
16 | 0% | Cc1ccc(CNC(=O)c2nn(C)c(C)c2[N+](=O)[O-])cc1
17 | -6% | O=C(CCN1C(=O)/C(=C/c2ccccc2Cl)SC1=S)Nc1cccnc1
18 | -15% | COc1ccc(C(C)(C)C)cc1NC(=O)c1ccc[n+]([O-])c1
19 | -7% | CCOc1ccc(NC(=O)CSc2nnnn2CC(=O)O)cc1
20 | -16% | CC1CN(c2ccc([N+](=O)[O-])c(NCCOc3ccccc3)c2)CC(C)N1 (stereo not given)
21 | -12% | O=C(Nc1ccc(C2=CN(Cc3ccccc3)CCC2=O)cc1)OCc1ccccc1
22 | 2% | CCN(CC)CCCNc1oc(-c2ccccc2[N+](=O)[O-])nc1C#N
23 | -12% | COc1ccc(NC(=O)NCc2ccccn2)cc1
24 | -3% | CC1(C)CC(NC(=O)COc2ccc3ccc(=O)oc3c2)CC(C)(C)N1
25 | -3% | Cc1ccc(N2CCN(C(=O)c3c(C)oc4ncn(C)c(=O)c34)CC2)c(C)c1
26 | 1% | Cc1ccc2c(c1)cc1c(=O)n(Cc3cccc(Cl)c3)nc(C)n12
27 | -1% | COc1ccc2ccccc2c1CN1CCN(C(=O)c2ccccc2)CC1
28 | 9% | CCCNc1nc(NCc2ccccc2OC)c2cnn(C)c2n1
29 | 6% | Cc1cccc(NC(=O)Cn2nnc(-c3nc(-c4ccncc4)no3)c2N)c1
30 | -20% | CC(C)CN(C(=O)Cn1c(Cl)nc2c1c(=O)n(C)c(=O)n2C)C1CCS(=O)(=O)C1 (stereo not given)
31 | -16% | Clc1cccc(CSc2nnc(-c3ccccn3)n2Cc2ccco2)c1
32 | 2% | COc1ccc(-c2cccc(C(=O)NCC(=O)O)c2)cc1
33 | 20% | CC(=O)NC1C(O)C[C@@](O)(C(=O)O)OC1[C@@H](O)C(O)CO (stereo not given in full)
34 | -4% | O=C(c1cccc(Cl)c1)N(Cc1ccco1)C1CCS(=O)(=O)C1 (stereo not given)
35 | -12% | COc1ccc(-c2cc(-c3nnc(-c4ccncc4)o3)c3ccccc3n2)cc1
36 | 8% | CCOc1ccc(NC(=O)CCCCCN2C(=O)[C@@H]3Cc4ccccc4CN3C2=O)cc1
37 | -2% | CC(C)NC(=O)CN(CCc1ccccc1)S(C)(=O)=O
38 | 4% | Cc1c(/C(O)=C2/C(=O)C(=O)N(CCN3CCOCC3)C2c2cccs2)cnn1-c1ccccc1 (stereo not given)
39 | 4% | COc1ccc2sc(N(Cc3cccnc3)C(=O)c3ccc4c(c3)OCCO4)nc2c1
40 | ? | CCOc1ccc(S(=O)(=O)N2CCN(C(=O)c3ccc(Cl)c(S(=O)(=O)N4CCOCC4)c3)CC2)cc1
41 | -27% | COCCn1c(SCC(=O)Nc2cc(C)on2)nc2c(c1=O)SCC2
42 | -24% | O=C(COc1ccccc1/C=C1\SC(=O)NC1=O)Nc1ccccc1
43 | -16% | CCOC(=O)C1CCCN(Cc2ccc(OCc3ccccc3)cc2)C1 (stereo not given)
44 | 7%&5% | O=C(NCCc1csc(-c2cccc(F)c2)n1)c1ccco1
45 | -10% | Cc1ccc(C)c(NC(=O)CN(C)C(=O)c2cc(-c3cccs3)nn2-c2ccccc2)c1
46 | 11% | Cc1cc(NC(=O)CN(C)C)c([N+](=O)[O-])cc1C
47 | 0% | O=[N+]([O-])c1cccc(C=NN=C2c3ccccc3-c3ccccc32)c1
48 | 12% | CN(Cc1ccccc1F)Cc1cc(=O)oc2cc(O)c(Cl)cc12
49 | -1% | CCCCC1CCC(C(=O)N(CC(C)C)c2c(N)n(Cc3ccccc3)c(=O)[nH]c2=O)CC1 (stereo not given)
50 | 7% | COc1cccc(OCC(O)CN2CCN(c3ccc(Cl)cc3)CC2)c1 (stereo not given)
51 | 6% | CCOC(=O)c1cccc(NC(=O)CCC(=O)N2CC(C)Oc3ccc(C)cc32)c1 (stereo not given)
52 | 15% | Cc1cc(C)nc(NC2=NCC(=O)N2c2ccc3c(c2)OCCO3)n1
53 | -9% | COc1ccc(/C=C(\C#N)C(=O)N2CCOCC2)cc1Br
54 | ? | COCCn1c(SCc2ccc(F)cc2)nc2c1c(=O)[nH]c(=O)n2C
55 | -4% | CCOC(=O)c1c(NC(=O)CC(C)C)sc(C(C)=O)c1C
56 | -1% | CCCOc1ccc(NC(=O)C2CCCNC2=O)cc1 (stereo not given)
57 | -2% | Cc1ccc(Cn2c(C3CCCN3c3nc(C)cs3)nc3cc(C(F)(F)F)ccc32)cc1 (stereo not given)
58 | -10% | COc1cc(CN2CCCCCC2)c([N+](=O)[O-])cc1OC
59 | 7% | Cc1cc(C)cc(-n2c(C)cc(/C=N/NC(=O)CN(c3c(C)cccc3C)S(C)(=O)=O)c2C)c1
60 | 7% | CN(C)S(=O)(=O)c1cccc(NC(=O)CCCc2nc3ccccc3c(=O)[nH]2)c1

(continued)
nr | VDR inh | structure
61 | -14% | Cc1ccccc1SCCNC(=O)c1ccccc1Br
62 | -9% | CC(NC(=O)CSc1nnnn1C1CC1)c1ccccc1Br (stereo not given)
63 | 10% | O=C(Nc1ccc(S(=O)(=O)N2CCCC2)cc1)c1cccs1
64 | -5% | O=[N+]([O-])c1ccc(OCCCCN2CCc3ccccc3C2)cc1
65 | -21% | S=c1[nH]nc(-c2ccco2)n1/N=C/c1ccc(Cl)c(Cl)c1
66 | 5% | O=c1ccnc(SCCc2ccc([N+](=O)[O-])cc2)[nH]1
67 | -17% | Cc1c(Cl)c([N+](=O)[O-])nn1CC(=O)N1CCCc2ccccc21
68 | -8% | O=C(CN1CCOCC1)NNc1c2ccccc2nc2ccccc12
69 | 4% | COc1ccc(N(Cc2cccs2)C(=O)COc2cccc(Cl)c2)cc1
70 | -6% | CCCCCNCC(=O)Nc1cc(C(F)(F)F)ccc1OCCOC
71 | -21% | COc1cc(NC(=O)Cn2nc(C(F)(F)F)c3c2CCC3)cc(OC)c1OC
72 | -24% | Cc1c(C)c2c(OCC(=O)Nc3ccc(CCO)cc3)cc3c(c2oc1=O)CCC(C)(C)O3
73 | 6% | Cc1cc(S(=O)(=O)NC2CCCC2)ccc1-n1cnnn1
74 | 5% | CC(C)(C)OC(=O)N1CCC(c2c(C(=O)N3CCCCC3)cnn2-c2cccc(F)c2)CC1
75 | 13%&3% | CCOc1ccc(NC(=O)C2CCCN(c3cnccn3)C2)cc1 (stereo not given)
76 | -27% | CCOC(=S)SCC(=O)Nc1nccs1
77 | 6% | COc1ccccc1NC(=O)C1CCCN(S(=O)(=O)c2ccc(-n3cnnn3)cc2)C1 (stereo not given)
78 | ? | c1cncc(-c2nccc(NCc3cccs3)n2)c1
79 | 8% | COc1cc(NC(=O)CN2Cc3ccccc3C2=O)cc(OC)c1OC
80 | 9% | COc1ccccc1OCc1ccc(C(=O)Nc2ccc(C)c(C)c2)o1
81 | -12% | COc1cccc(/C=N/NC(=O)c2cc3c(OC)cccc3[nH]2)c1OC
82 | 3% | CCc1nc2ccc(C(=O)NCCCN3CCN(c4ccccc4F)CC3)cc2nc1CC
83 | -9% | CCn1cc(/C=N\NC(=O)Cc2ccc([N+](=O)[O-])cc2)c(C)n1
84 | -1% | CCOc1ccc(-c2csc(-c3nc(-c4ccc(Br)s4)cs3)n2)cc1
85 | 10% | O=C(CCc1nnc2n(Cc3ccccc3)c(=O)c3ccccc3n12)NCCCN1CCCCC1
86 | 3% | COc1ccc(NC(=O)CSc2nnc(-c3ccco3)c(-c3ccco3)n2)cc1OC
87 | 8% | O=C(NNc1nc2ccccc2s1)c1ccc(F)cc1
88 | -13% | CNC(=O)c1sc(Nc2cc(C)ccc2C)nc1C
89 | -6% | COc1cc(C)ccc1OCCSc1nnc(-c2ccc(C)cc2)o1
90 | 5% | COCCn1c(SCc2nc3cc(OC)c(OC)cc3c(=O)[nH]2)nnc1-c1ccncc1
91 | -3% | COc1cc(C2CC(=O)Oc3c(C(C)C)ccc(C)c32)cc(OC)c1OC (stereo not given)
92 | 0% | ONC(=Nc1ccc(Cl)cc1)c1ccccc1
93 | -18% | O=[N+]([O-])c1ccc(COc2cccc3cccnc23)cc1
94 | -4% | Cc1cc(NC(=O)COC(=O)c2c(Cl)cccc2Cl)no1
95 | -18% | COCCNC(=O)c1cnn2c(C(F)F)cc(-c3ccc(C)cc3)nc12
96 | -3% | CN(C)C(CNS(=O)(=O)c1ccc(Br)cc1)c1cccnc1 (stereo not given)
97 | 3% | COc1ccc(C(=O)CSc2n[nH]c(=O)[nH]c2=O)cc1
98 | 5%&4% | Cc1ccc(-n2nnnc2CNC(=O)C2CC(=O)N(c3ccccc3)C2)cc1C (stereo not given)
99 | 5% | Cc1ccc(C2=CSC3=NS(=O)(=O)CCN23)cc1C
100 | -9% | NCCCCCNC(=O)c1nc[nH]c1C(=O)NCC(=O)OCc1ccccc1
101 | -2% | CC(C)(C)C(=O)NC(=S)NCc1ccccc1
102 | -19% | O=C(OCC(=O)N1CCN(C(=O)c2ccco2)CC1)c1cc(=O)c2ccccc2o1
103 | ? | Cc1cccc(OCCSc2nc(N)cc(N)n2)c1
104 | 6% | COc1ccc2nc(C)cc(Nc3ccc(N4CCN(C)CC4)cc3)c2c1
105 | 16µM* | Cc1c2c(c(O)c3c(O)cccc13)C(=O)O[C@H]2C1C(N(C)C)C(O)=C(C(N)=O)C(=O)[C@H]1O (stereo not given in full)
106 | 6% | CC1(C)CC(=O)c2cc(OCC(=O)NCC3CCCO3)ccc2O1 (stereo not given)
107 | 8% | Cc1cc(/C=C2\SC(=O)NC2=O)c(C)n1-c1ccc(N(C)C)cc1
108 | 8% | Cc1cc(C)c(Cn2c(=O)n(CCCC(=O)NCc3ccco3)c(=O)c3sccc32)c(C)c1
109 | -15% | COc1cc(/C=C/c2[nH]c(=O)[nH]c(=O)c2[N+](=O)[O-])ccc1OCCC(C)C
110 | 3% | CCN(CC)S(=O)(=O)c1ccc(C(=O)Nc2ccc(Cc3ccncc3)cc2)cc1
111 | 2% | O=C(C[n+]1ccc2ccccc2c1)c1ccccc1
112 | -4% | CC1CCCCN1Cc1c(O)ccc2c(=O)c(-c3ccc(Cl)cc3)c(C(F)(F)F)oc12 (stereo not given)
113 | 16% | C#CC[N+](C)(C)CCCCCCCCCC
114 | 3% | CCCCc1nnc(NC(=O)C(C)Sc2nc(C)cc(=O)[nH]2)s1 (stereo not given)
115 | -6% | COc1cc2c(cc1NC(=O)c1cccc(Br)c1)CCCC2
116 | 8% | O=C(CCc1nc(-c2cccs2)no1)Nc1ccc([N+](=O)[O-])cc1
117 | ? | CCOCCCNS(=O)(=O)c1ccc(NC(=O)c2ccc(OC)c([N+](=O)[O-])c2)cc1
118 | -16% | CCOC(=O)C1=C(C)NC(=O)NC1c1cn(-c2ccccc2)nc1-c1cccs1 (stereo not given)
119 | 6% | CC(C)NS(=O)(=O)c1ccc(CCC(=O)N2CCCC2)cc1
120 | 10% | CC(C)(C)NCC1(CO)SC(N)=NC1=O (stereo not given)

(further entries)
nr | VDR inh | structure
121 | -17% | CCN(CC)CCCNC(=O)C1c2cc(OC)c(OC)cc2C(=O)N(C)C1c1cccnc1 (stereo not given)
122 | 8% | O=C(c1cnc(N2CCN(c3ccccn3)CC2)c2ccccc12)N1CCN(c2cccc(Cl)c2)CC1
123 | -4% | CCOC(=O)C1=NS(=O)(=O)NC(C)=C1
124 | -19% | CN(C)c1ccc(-c2cc([C@H]3[C@@H]4C=CCC[C@@]4(C)C(=O)N3Cc3ccccc3)ccc2F)cc1
125 | 22% | COc1ccc(-c2ncnc(C(F)(F)F)c2-c2csc(C)n2)c(O)c1
126 | -1% | COc1cc(NC(=O)C2CCCN(c3ncnc4c3nc3n4CCCCC3)C2)cc(OC)c1OC (stereo not given)
127 | -1% | COc1cccc(CN2CCN(C(=O)c3cccc4ccccc34)CC2)c1
128 | -7%&20% | COc1cccc(CNC(=O)CN2C(=O)CSc3ccc(S(=O)(=O)N4CCCC4)cc32)c1

This is a subset; rates above refer to the full screens.
